# High-throughput results from PubChem BioAssay.
# Mtb H37Rv – Mycobacterium tuberculosis H37Rv growth inhibition, cell based, confirmatory dose response (AID 1949). most inactive calls were filed without a number and no value below 0 was filed. inhibition, % at 10 µg/mL; hits with a dose series show IC50 in µg/mL. hit rate 1.6% among 100,000;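 active = confirmed in a dose series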;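 also: bacteria grown 7 days with compound before Alamar blue readout; 0% = untreated bacteria and 100% = reference antibiotic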
# The depositor's hits bear a star; i = inactive. The list is partial (hit frequency here may not be typical).
structure | Mtb H37Rv
O=C(CSc1ccccc1)Nc1ccc(S(=O)(=O)NCC2CCCO2)cc1 (stereo not given) | i
CCCOc1ccc(N2CC(C(=O)Nc3cccc(Cl)c3C)CC2=O)cc1 (stereo not given) | i
COC(=O)c1ccc(C(=O)c2c(C)cc(C)cc2C)cc1 | i
COc1cc(C(=O)N2CCC(N3CCN(c4ccccc4F)CC3)CC2)cc(OC)c1OC | i
CCOC(=O)CCc1c(C)nc2cc(-c3ccccc3)[nH]n2c1=O | i
Oc1ccccc1-c1nc(Nc2cccc(C(F)(F)F)c2)c2ccccc2n1 | i
CCOc1cc(CNCCc2ccccc2)ccc1OCC(=O)NC1CCCCC1 | 1.6%
CCOc1ccc(NC(=O)Nc2ccccc2C(C)CC)cc1 (stereo not given) | i
CCCCNC(=O)c1cccc(NC(=O)c2ccccc2)c1 | i
CCCCC(=O)Nc1ccc(NC(=O)c2ccccc2F)cc1OC | 5.9%
COc1ccc(CCNC(=O)C(=O)Nc2ccc(C)c(Cl)c2)cc1 | i
O=C1c2c(Cl)c(Cl)c(Cl)c(Cl)c2C(=O)N1c1n[nH]c(-c2ccco2)n1 | i
CCOC(=O)c1ccc(NC(=O)NCc2ccn(CC)n2)cc1 | i
COc1ccc(CNC2CC(=O)N(c3ccc(Cl)cc3)C2=O)cc1 (stereo not given) | i
CCOc1ccc(-n2c(SC/C=C/c3ccccc3)nnc2-c2cccnc2)cc1 | 0.9%
CCOC(=O)c1ccccc1NC(=O)c1cc(-c2ccc(C)o2)nc2ccccc12 | i
COc1ccccc1CNC(=O)COc1ccc(S(=O)(=O)N2CCCC2)cc1 | 0.2%
O=C(NCC1CCCO1)c1cnn2c(C(F)F)cc(-c3ccccc3)nc12 (stereo not given) | 1.1%
CC(Oc1cccc(Cl)c1)C(=O)Nc1cccc(Cl)c1Cl (stereo not given) | 9.7%
O=C(COc1ccc(F)cc1)N1CCN(Cc2ccccc2)CC1 | i
CN(C1CCCCC1)S(=O)(=O)c1ccc(F)cc1 | i
Cn1c(Sc2ccc(C(=O)O)cc2[N+](=O)[O-])nnc1-c1ccccc1 | i
Cc1cc(OCC(=O)N2CCc3ccccc3C2)c2c(-c3ccccc3)cc(=O)oc2c1 | i
CS(=O)(=O)N1CCN(c2ccccc2NC(=S)NC(=O)c2ccco2)CC1 | i
CCC(=O)Nc1ccc(Cl)c(NC(=O)c2ccccc2Cl)c1 | 6.0%
CC(c1ccccc1)n1c(Cn2ncc3ccccc3c2=O)n[nH]c1=S (stereo not given) | i
COc1ccc(OC(=O)COc2ccc(Cl)cc2)cc1 | i
CC(C)(C)c1ccc(OCC(=O)O/N=C(\N)c2ccccn2)c(Br)c1 | i
CNc1ccccc1C(=O)OCc1ccc(C(=O)OC)cc1 | i
CCCCOc1ccc(C(=O)N2CCN(c3ccc([N+](=O)[O-])c(NC4CC4)c3)CC2)cc1 | i
CCOC(=O)c1ccc(N2NC(=O)/C(=C/c3ccc(OC(=O)c4cccs4)cc3)C2=O)cc1 | 32.6%
O=c1[nH]c(=S)[nH]c(O)c1C(c1ccccc1)c1ccccc1 | i
CCN(CC)S(=O)(=O)c1ccc2cc(C)ccc2c1 | 0.7%
COc1ccccc1C(=O)n1nc(-c2ccc(Cl)cc2)nc1SC | 1.8%
COc1ccc(S(=O)(=O)Nc2ccc(I)cc2C)cc1C | i
COc1ccc(-n2c(Cn3ncc4ccccc4c3=O)n[nH]c2=S)cc1 | i
COC(=O)c1ccccc1NC(=O)NC12CC3CC(CC(C3)C1)C2 | 1.8%
O=C(NCCSC1CCCCC1)c1ccccc1 | i
CC(Sc1nc2cc(-c3ccccc3)c(-c3ccccc3)cc2[nH]1)C(=O)O (stereo not given) | i
CCOc1cc(/C=C(/C#N)c2ccc(F)cc2)ccc1OCc1ccc(C(=O)O)o1 | 38.1%
Cc1cc(Br)c2[nH]c(O)c(N=NC(=O)COc3ccccc3C)c2c1 | 18.7µg/mL*
CCC(C)c1c(O)[nH]c(=S)[nH]c1=O (stereo not given) | i
O=C(CS(=O)(=O)c1ccccc1)NCc1ccco1 | 2.8%
Cn1ccc(C(=O)NNC(=O)Nc2ccc(Cl)c(Cl)c2)n1 | i
Cc1cc(=O)oc2cc(OCc3cccc4ccccc34)c(Cl)cc12 | i
CC(=O)Nc1cc(C(F)(F)F)ccc1F | i
CC(=O)N(C)c1ccc(NC(=S)NC(=O)c2ccc(F)cc2)cc1 | i
O=C(CCN1C(=O)C2C3C=CC(C4CC34)C2C1=O)Oc1ccc(Br)cc1 (stereo not given) | i
CCOc1ccc(N(CC(=O)Nc2ccc(CC)cc2)S(=O)(=O)c2ccccc2)cc1 | i
CCOc1ccc(C(=O)Nc2cccc(NC(=O)c3ccccc3C)c2)cc1[N+](=O)[O-] | 14.6%
COc1ccc(CN2C(=O)C(O)(CC(=O)c3c(C)n[nH]c3C)c3ccccc32)cc1OC (stereo not given) | i
CCC(C)c1ccccc1NC(=O)c1ccco1 (stereo not given) | i
COc1ccc(COC(=O)C2=C(C)NC3=C(C(=O)CC(c4cccs4)C3)C2c2ccc(C)o2)cc1 (stereo not given) | 2.2%
CSc1ccccc1C(=O)Nc1ccc(S(=O)(=O)Nc2cccc(Cl)c2Cl)cc1 | i
Clc1cccc(OCCn2c3ccccc3c3ccccc32)c1 | 1.2%
O=C(Nc1ccccc1)N1CCN(c2cccc(Cl)c2)CC1 | i
Cc1cc(C)c(NC(=O)CN(c2cccc(Br)c2)S(C)(=O)=O)c(C)c1 | i
O=C1CSC2=NC3=C(CCc4ccccc43)C(c3cccc(F)c3)N12 (stereo not given) | i
Cc1ccccc1NS(=O)(=O)c1cc(OCC(N)=O)c(C)cc1Cl | i
CC(C)Oc1ccc(C(CC(=O)N2CCCC2)c2ccccc2)cc1 (stereo not given) | 3.0%

# Other results follow:
structure | Mtb H37Rv
O=C(Cn1c(=O)oc2ccccc21)N1CCCCC1 | i
CCc1ccccc1NC(=O)CSC | i
CCc1ccccc1N(CC(=O)Nc1ccc2c(c1)OCCO2)S(=O)(=O)c1ccccc1 | i
Cc1ccc(S(=O)(=O)N(CC(=O)N2CCN(Cc3ccccc3)CC2)c2ccc(C)cc2C)cc1 | 10.6%
COc1cc(C(=O)Oc2ccc3c(c2)OCC3=O)cc(OC)c1OC | i
O=Cc1ccc(-c2ccc(Cl)cc2Cl)[nH]1 | 31.8%
O=C1/C(=C\c2cccc(O)c2)SC(=S)N1c1ccc(F)cc1 | i
Cn1cc(C=O)c2cc(Br)ccc21 | 7.5%
O=C(C1CCCN(S(=O)(=O)c2ccc(F)cc2)C1)N1CCCCCC1 (stereo not given) | i
Cc1ccccc1C(=O)N1CCC(C(=O)Nc2cccc(Cl)c2C)CC1 | i
Cc1c(C(N)=O)sc2ncn(Cc3ccc(F)cc3)c(=O)c12 | i
O=C1CC(N2CC=C(c3ccc(F)cc3)CC2)C(=O)N1c1ccc(F)cc1 (stereo not given) | 6.5%

# Ordered by molecular weight (rising): some entries from above
structure | Mtb H37Rv
Cn1cc(C=O)c2cc(Br)ccc21 | 7.5%
COc1cc(C(=O)Oc2ccc3c(c2)OCC3=O)cc(OC)c1OC | i
O=C(C1CCCN(S(=O)(=O)c2ccc(F)cc2)C1)N1CCCCCC1 (stereo not given) | i
CCc1ccccc1N(CC(=O)Nc1ccc2c(c1)OCCO2)S(=O)(=O)c1ccccc1 | i

# Other records:
structure | Mtb H37Rv
COc1ccc(OCC(=O)NCc2cccnc2)cc1 | i
C#CCSc1nnc(-c2ccccc2)c(=O)[nH]1 | 10.7%
N#Cc1ccc(N2CCCCC2)c(F)c1 | i
COC(=O)c1sc2cc(NC(=S)Nc3cnn(Cc4ccc(Br)cc4)c3)ccc2c1Cl | i
COc1cc(C=O)cc(Cl)c1OCC(=O)Nc1ccccc1F | 3.4%
COC(=O)Nc1nc2ccc(C(=O)c3ccccc3)cc2[nH]1 | i
COc1ccc(NC(=O)CSc2nc(SCC(=O)Nc3ccc(OC)cc3)nc(N3CCCC3)n2)cc1 | i
N#Cc1c(C(F)(F)F)cc(-c2ccccc2)nc1SCC(=O)Nc1nccs1 | i
CC(O)CNc1nc2c(c(=O)n(Cc3ccccc3F)c(=O)n2C)n1C (stereo not given) | 1.8%
S=C(NCc1cccs1)NCC1CCCO1 (stereo not given) | i
C=CCn1c(C(CC(C)C)NC(=O)c2ccccc2Cl)n[nH]c1=S (stereo not given) | i
Cc1cc(C)c(S(=O)(=O)N2C(=O)CCC2C(=O)Nc2cccc([N+](=O)[O-])c2)c(C)c1 (stereo not given) | i
Cc1ccc(S(=O)(=O)NCCSc2nnc(N)s2)cc1 | i
CC(=O)Nc1ccc(Br)cc1-c1nc2ccccc2[nH]c1=O | i
CCc1ccc(C(=O)NC(=S)Nc2ccc([N+](=O)[O-])cc2OC)cc1 | i
COCCCNC(=S)N1CCN(C2CCCCC2)CC1 | i
CCCC(=O)Nc1ccc(C(=O)N2CCc3ccccc3C2)cc1 | i
Cc1ccccc1C(=O)Nc1c(C(=O)N2CCOCC2)cnn1-c1ccccc1 | i
Cc1ccc(C(=O)Nc2nc3c(C)cccc3s2)o1 | 38.3%
O=C(NC1CC1)c1n[nH]c(=O)c2ccccc12 | i
CCOc1ccccc1N1CCN(C(=O)c2cc(C)oc2C)CC1 | i
Cc1nn(C)cc1CNC(=O)c1cccc(Cl)c1 | i
O=C(Cc1cccs1)NCc1ccc(Cl)cc1Cl | i
Cc1ccc(S(=O)(=O)N2CCCC2C(=O)Nc2ccc(F)cc2F)cc1 (stereo not given) | i
Clc1ccc(OCc2ccccc2Cl)c(CNC2CCCCC2)c1 | 2.51µg/mL*
CC1=C(C(=O)Nc2ccccc2F)C(c2ccc(Cl)cc2Cl)NC(=O)N1 (stereo not given) | 1.3%
CCn1c(SCC(=O)c2cccc([N+](=O)[O-])c2)nnc1-c1cccnc1 | i
Cc1ccccc1OC1=NS(=O)(=O)c2ccccc21 | i
O=C(Cc1ccccc1)Nc1ccc(S(=O)(=O)NCCc2ccccc2)cc1 | i
CC1CN(C(=O)c2ccc(COc3ccccc3Br)cc2)CC(C)O1 (stereo not given) | i
CCOc1cc(C2NC(=O)NC(C)=C2C(=O)NCc2ccccc2)c(Cl)cc1O (stereo not given) | i
CCOc1ccc(-n2c(C)nnc2SCC(=O)Nc2ccc(Br)cc2F)cc1 | i
O=C(CSc1nnc(-c2ccncc2)o1)Nc1ccc(Cl)cn1 | 5.59µg/mL*
Cc1ccccc1OCC(=O)Nc1ccc(Cl)c(Cl)c1 | i
COc1ccc(C)cc1S(=O)(=O)N1CCc2ccccc21 | i
Cc1cc(C(=O)NCc2cc(C(=O)O)oc2C)c(C)o1 | 1.6%
O=S(=O)(Nc1cccc2ccccc12)N1CCCC1 | i
Cc1cc(C(=O)N2CCN(c3ccccn3)CC2)cs1 | i
Clc1ccc(C2=CC(c3ccc(Br)o3)n3ncnc3N2)cc1 (stereo not given) | i
Cc1cc(C)nc(NCc2ccco2)n1 | 0.3%
CCOc1ccc(OCCCCN2CCNCC2)cc1 | i
CCc1nc2c(sc3nc4c(cc32)COC(C)(C)C4)c(=O)n1CC1CCCO1 (stereo not given) | i
O=C(CNc1n[nH]c(=O)[nH]c1=O)N/N=C/c1ccc(Br)cc1 | i
N#CCCn1cc(CO)c(-c2ccc(Cl)cc2)n1 | i
CCCOc1cc(Br)c(CNC(C)c2ccccc2)cc1OCC (stereo not given) | i
COc1cccc(C(=O)N2CCN(S(=O)(=O)c3ccc(F)cc3)CC2)c1 | i
CCOc1ccccc1C(=O)Nc1cccc(CC)c1 | 19.2%
c1ccc(CN2CCC(N3CCc4ccccc4C3)CC2)nc1 | 0.5%

# Reformatted as labelled records: part of the list above
> CCCOc1cc(Br)c(CNC(C)c2ccccc2)cc1OCC (stereo not given)
  Mtb H37Rv: i

> CCOc1ccccc1C(=O)Nc1cccc(CC)c1
  Mtb H37Rv: 19.2%

> O=S(=O)(Nc1cccc2ccccc12)N1CCCC1
  Mtb H37Rv: i

> O=C(CNc1n[nH]c(=O)[nH]c1=O)N/N=C/c1ccc(Br)cc1
  Mtb H37Rv: i

# Other records follow.
structure | Mtb H37Rv
COc1ccc(-c2noc(COc3ccc(Cl)cc3C)n2)cc1OC | 0.8%
CCCc1nnc(NC(=O)c2ccc3c4c(cccc24)CC3)s1 | i
COC(=O)c1cccc(NC(=S)NCc2ccc(F)cc2)c1 | i
COc1ccccc1OCCn1c(=S)[nH]c2ccccc21 | 9.6%
Cc1ccc(NC(=O)CN(c2ccc(I)cc2)S(C)(=O)=O)c(C)c1 | i
COc1ccc(N(CC(=O)N2CCCCC2)S(=O)(=O)c2ccc(C)cc2)cc1Cl | 5.7%
C=CCn1c(SCC(=O)N2CCOCC2)nc2scc(-c3ccco3)c2c1=O | i
Cc1ccc(C23CC4CC(C2)CC(c2csc(N)n2)(C4)C3)cc1 | i
CCCCOc1ccc(C(=O)N(C)c2c(C)n(C)n(-c3ccccc3)c2=O)cc1 | i
CC(=O)Nc1cccc(C(=O)OCc2ccccc2)c1 | i
O=C1C2C3c4ccccc4C(c4ccccc43)C2C(=O)N1Cc1ccccn1 (stereo not given) | i
O=C(CSc1ccccn1)Nc1cccc(NC(=O)C23CC4CC(CC(C4)C2)C3)c1 | i
CCOc1cc(C=O)c(Cl)cc1O | i
NC(=O)c1ccccc1NC(=S)NC(=O)c1cc2ccccc2o1 | i
Cc1occc1C(=O)Nc1ccc(S(=O)(=O)Nc2ncccn2)cc1 | i
COc1ccc(OC)c(NC(=O)CSc2nnc(C)n2Cc2ccccc2)c1 | i
Cc1cc(C)cc(OCC(=O)Nc2nc(C)cc(C)n2)c1 | i
COc1cc(CNCc2ccccc2Cl)ccc1OCC(N)=O | 0.4%
CC1=C(C(=O)Nc2ccccc2)C(c2ccccc2Cl)C(C#N)=C(SCC#N)N1 (stereo not given) | i
